KCNQ2 block = KCNQ2 potassium channel inhibitors, primary screen, cell-based, CHO-K1, FluxOR thallium flux, B-score (AID 2156). hit rate 1.1% among 310,000. Potassium voltage-gated channel subfamily KQT member 2 (Rattus norvegicus), O88943. B-score at 10 µM. 20 min; stronger effect = lower value; only compounds with negative scores are shown here; some inactives read as strong as hits;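 active means fluorescence ratio B-score at most minus 3 library SDs, with starting brightness B-score within 2 library SDs, cut at about -5.5 in these data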
Target sequence (O88943 whole entry, looked up): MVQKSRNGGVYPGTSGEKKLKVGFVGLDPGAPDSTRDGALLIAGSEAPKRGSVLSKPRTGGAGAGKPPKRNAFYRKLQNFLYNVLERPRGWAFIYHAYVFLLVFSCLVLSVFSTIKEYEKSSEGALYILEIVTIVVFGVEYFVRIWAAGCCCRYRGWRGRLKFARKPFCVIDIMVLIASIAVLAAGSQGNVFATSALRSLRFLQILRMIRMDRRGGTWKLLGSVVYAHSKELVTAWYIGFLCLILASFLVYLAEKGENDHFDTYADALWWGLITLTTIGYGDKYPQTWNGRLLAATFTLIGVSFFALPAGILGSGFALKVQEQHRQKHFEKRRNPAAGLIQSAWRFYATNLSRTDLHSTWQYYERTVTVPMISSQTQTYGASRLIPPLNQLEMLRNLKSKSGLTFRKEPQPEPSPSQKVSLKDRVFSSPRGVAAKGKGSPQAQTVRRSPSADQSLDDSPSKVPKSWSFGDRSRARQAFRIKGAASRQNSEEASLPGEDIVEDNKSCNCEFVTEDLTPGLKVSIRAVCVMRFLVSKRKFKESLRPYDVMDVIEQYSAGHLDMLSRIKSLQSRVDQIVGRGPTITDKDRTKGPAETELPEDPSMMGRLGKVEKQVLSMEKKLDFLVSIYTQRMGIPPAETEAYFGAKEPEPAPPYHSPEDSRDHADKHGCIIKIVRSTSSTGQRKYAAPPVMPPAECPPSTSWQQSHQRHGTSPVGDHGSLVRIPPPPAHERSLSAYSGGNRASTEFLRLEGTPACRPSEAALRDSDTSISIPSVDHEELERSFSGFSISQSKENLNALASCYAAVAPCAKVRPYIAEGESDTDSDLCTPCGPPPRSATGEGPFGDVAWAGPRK
KCNQ2 block baseline = also measured in KCNQ2 block; calls as there; B-score; measured here: initial fluorescence intensity artifact check;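 brightness before thallium and not channel activity; 0 = typical well and far values either way flag optical interference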
* marks the source's active call; other numbers are inactive results; i = inactive. A portion of the library (hit frequency here may not be typical).

SMILES	KCNQ2 block	KCNQ2 block baseline
COc1ccccc1C(C#N)N1N=C(C)CC1c1ccccc1 (stereo not given)	i	1.6
Cc1ccc(C(=O)N(CC(C)C)c2c(N)n(Cc3ccccc3)c(=O)[nH]c2=O)o1	i	-1.1
CCOc1cc(/C=C2/C(=N)N3OC(C)=CC3=NC2=O)ccc1OC(=O)c1ccco1	i	-0.51
COc1ccc(C(=O)NC2CCN(CC(=O)Nc3cccc(OC)c3)CC2)cc1	i	0.95
Cc1c(C(=O)/C=C/N(C)C)nnn1-c1ccc(Cl)cc1Cl	i	0.45
CC(C)c1csc(CN2CCN(Cc3ccc(F)c(F)c3)C(CCO)C2)n1 (stereo not given)	i	0.62
O=C1N=c2ccccc2=C1c1sc(=S)n(-c2ccc(O)cc2)c1O	i	-0.86
Cc1ccc(CCN2CC(C(=O)NCCN3CCCCCC3)CC2=O)cc1 (stereo not given)	i	1.6
COc1ccc(C(=O)OCC(=O)Nc2ccc(Cl)c(C(F)(F)F)c2)c(OC)c1OC	i	1
Cc1cc(C(=O)CSc2nnc(-c3ccccc3)o2)c(C)n1CC1COc2ccccc2O1 (stereo not given)	i	-0.18
COc1ccc(NC(=O)Cc2cccc(F)c2)cc1S(=O)(=O)Nc1ccccc1Cl	i	0.01
O=S(=O)(Cc1ccccc1)N1CCCCCC1	i	-2.6
CCN1CCSc2ccc(C(=O)NCc3cccc(F)c3)cc21	i	0.94
Cc1ccc(C(=O)C[n+]2ccccc2C)cc1[N+](=O)[O-]	i	0.6
CCc1cccc(NC(=O)NC2CCCCC2)c1	i	1.4
O=C(NCCc1ccc(Cl)cc1)c1cc(=O)[nH]c2ccccc12	i	-0.42
COc1ccc(C2c3c(ncn(CCCN4CCOCC4)c3=N)Oc3ccc4ccccc4c32)cc1OC (stereo not given)	i	0.05
COc1ccc(N(C)S(=O)(=O)c2cccc(C(=O)Nc3nnc(C4CC4)s3)c2)cc1	i	-0.76
COc1cccc(CC(NC(C)=O)C(=O)NC2CCN(C(=O)NCc3ccccc3)CC2)c1 (stereo not given)	i	0.28
CCC(C)N1C(=O)S/C(=C/c2ccc(Sc3nc4ccccc4[nH]3)o2)C1=O (stereo not given)	i	-0.06
Cc1cccn2c(=O)nc(SCC(=O)c3ccccc3)nc12	i	-2.5
Cc1ccc(S(=O)(=O)c2cc3c(=O)n4ccccc4nc3n(CCc3ccccc3)c2=N)cc1	i	0.11
O=C(CCC(=O)N1CCOc2ccccc21)NCc1ccccn1	i	-0.08
CC1CN(C(=O)c2cccc(Oc3ccccc3)c2)CC(C)O1 (stereo not given)	i	0.97
Cc1c(NS(=O)(=O)c2ccc(N3CCCCC3)c([N+](=O)[O-])c2)c(=O)n(-c2ccccc2)n1C	i	-1.6
Cc1ccc2nc(-c3ccncc3)cc(-c3ccccc3)c2c1	i	-1.9
O=c1[nH][nH]c(=S)n1C1CCCCC1	i	1
CCc1cccc(C)c1NS(=O)(=O)c1cc(Br)cnc1N	i	0.39
COc1ccccc1N1CCN(S(=O)(=O)/C=C/c2ccccc2)CC1	i	-1.9
CCOC(=O)/C=C1\SCC(=O)N1CC(=O)NC(C)c1ccc(F)cc1 (stereo not given)	i	-0.11
Cc1cc(C)n(Cc2ccccc2F)c(=O)c1C#N	i	1.3
Cc1nc(C)n(C(C)CNC(=O)c2ccccc2)n1 (stereo not given)	i	-0.85
CCCCC(=O)Oc1c(S(=O)(=O)c2ccccc2)c(C)nn1C(C)(C)C	i	-2.8
COc1cccc2cc(C(=O)NC3CC4CCC3C4)oc12 (stereo not given)	i	-0.9
Oc1ccc(/C=N/Nc2ccnc3cc(Cl)ccc23)c(O)c1O	i	-2.9
CC1CCCN(C(=O)CNS(=O)(=O)c2cccs2)C1 (stereo not given)	i	1.2
COCCN(C(=O)COC(=O)CCOc1ccccc1C)c1c(N)n(Cc2ccccc2)c(=O)[nH]c1=O	i	-0.7
O=C(N[C@H]1CC1c1ccccc1)c1ccc([N+](=O)[O-])cc1 (stereo not given in full)	i	1.8
CCCc1nc(-c2ccccc2)c(-c2ccc(OC)c(OC)c2)c(=O)[nH]1	i	1.3
COc1ccc(CN(C(=O)c2ccco2)c2ccc(C)cc2)cc1OC	i	-0.28
CCN(CC)c1cc(C)c2cc(NC(=O)c3ccc(Br)o3)ccc2n1	i	-0.06
O=C(CN1C(=O)NC2(CCCC2)C1=O)N1CCN(S(=O)(=O)c2ccccc2)CC1	i	1.5
COc1cc(S(=O)(=O)N2CCN(c3ccccn3)CC2)ccc1Br	i	0.94
CCN(CC)S(=O)(=O)c1ccc2c(c1)c(=O)c(C(=O)N1CCOCC1)cn2C	i	-0.05
CCCc1c(C)nc(N2CCN(c3ccccc3OC)CC2)[nH]c1=O	i	-1
Cc1ccc(CN(C)C(=O)c2cccc(S(=O)(=O)N3CCN(Cc4ccccc4)CC3)c2)o1	i	1.3
CCC(C)NCCOCCOc1ccc(Br)cc1 (stereo not given)	i	0.18
CCOc1cc(C(=O)N/N=C/C2CC=CCC2)cc(OCC)c1OCC (stereo not given)	i	0.93
CCOC(=O)CN(C(=O)CSc1nnc(-c2ccc(OC)c(OC)c2)o1)c1ccc(F)cc1	-6.6*	0.12*
CCC(C)[C@H](NC(=O)Nc1ccccc1F)C(=O)OC (stereo not given in full)	i	1.4
COC(=O)c1ccc(NC(=S)NC(=O)C2CCC2)cc1	i	0.55
COC(=O)c1ccc(OC(=O)CN2C(=O)c3ccccc3C2=O)cc1	i	-0.45
C/C=C/c1ccc(OCCCn2cncn2)c(OC)c1	i	-0.24
COc1ccc(Cn2ccnc2SCC(=O)NC2CCCCC2)cc1	i	1.8
O=S(=O)(Nc1ccccc1N1CCCCC1)c1ccc(F)cc1F	i	1.1
COc1ccc(C)cc1NC(=O)C(Sc1nnnn1C)c1ccccc1 (stereo not given)	i	-0.06
CS(=O)(=O)NN1C(=O)c2ccccc2NC1c1cccc2cccnc12 (stereo not given)	i	-0.01
O=C(C=C1SCCS1)/C=C/c1ccco1	i	0.41
COC(=O)C1=C(C)NC(C)=C(C(=O)OC)C1C(=O)OCCN1C(=O)c2ccccc2C1=O	i	-0.04
O=c1[nH]c(CO)nc2c1oc1ccccc12	i	1.6

Additional entries.
SMILES	KCNQ2 block	KCNQ2 block baseline
CC1=C(C(=O)OC2CCCC2)C(c2ccc(C)o2)C2=C(CC(c3cccs3)CC2=O)N1 (stereo not given)	-5.7*	1.5*
O=C(Nc1cccc(C(F)(F)F)c1)C1CCCCC1	i	-0.03
OCCN1CCN(c2ncnc3sc4c(c23)CCCC4)CC1	i	-2.2
COc1ccc(NS(=O)(=O)c2cccc(C(=O)NNC(=O)CNC(=O)c3cccc(C)c3)c2)cc1	i	-2.4
CCOc1ccccc1O[C@H](c1ccccc1)[C@H]1CNCCO1	i	-0.02
CCOC(=O)/C(=C\C=C1/Sc2ccccc2N1CC)C(C)=O	i	35
CC1CC(C)CN(C(=O)/C(=C\c2ccccc2)c2ccccc2)C1 (stereo not given)	i	0.01
C=CCNC(=O)C1CCN(C(=O)c2ccc(-c3ccccc3)cc2)CC1	i	1.6
O=[N+]([O-])c1ccc(/C=C/c2nc3ccc([N+](=O)[O-])cc3[nH]2)cc1	i	0.44
CSc1cccc(NC(=O)c2nnn(CC(=O)Nc3cc(C)cc(C)c3)c2N)c1	i	0.19
COc1ccc(C(=O)C[n+]2cccc3cc(C)ccc32)cc1	i	-1
COc1cccc(O[C@@H]2O[C@@H]3COC(C)(C)O[C@H]3[C@H](O)[C@H]2NC(C)=O)c1	i	0.4
Cc1ccc(NC2CCCN(C(=O)c3ccccn3)C2)cc1C (stereo not given)	i	0.37
Cc1cccc(NC(=O)CCc2nnc3ccc(NCc4ccco4)nn23)n1	i	-0.03
COCCNC(=O)CN(C(=O)CCC(=O)Nc1nccs1)c1ccc2c(c1)OCO2	i	0.01
COC(=O)c1cc(OC)c(OC)cc1NC(=O)c1c(-c2ccccc2)noc1C	i	-0.03
CC1CCCC(C)N1CCCNC(=O)c1cc2c(s1)-c1ccccc1OC2 (stereo not given)	i	-0.2
Cc1ccc(N2C(=O)c3cccc([N+](=O)[O-])c3C2=O)cc1C	i	-0.01
Cc1ccc(/C=N/NC(=O)CSc2nc3ccccc3n2C)s1	i	2
O=C1c2ccccc2CN1CCNC(=S)NC1CCCCC1	i	0.29

Reprinted from the listing for reference:
SMILES	KCNQ2 block	KCNQ2 block baseline
O=C(Nc1cccc(C(F)(F)F)c1)C1CCCCC1	i	-0.03
OCCN1CCN(c2ncnc3sc4c(c23)CCCC4)CC1	i	-2.2
COc1ccc(NS(=O)(=O)c2cccc(C(=O)NNC(=O)CNC(=O)c3cccc(C)c3)c2)cc1	i	-2.4
CCOc1ccccc1O[C@H](c1ccccc1)[C@H]1CNCCO1	i	-0.02
CCOC(=O)/C(=C\C=C1/Sc2ccccc2N1CC)C(C)=O	i	35
CC1CC(C)CN(C(=O)/C(=C\c2ccccc2)c2ccccc2)C1 (stereo not given)	i	0.01
C=CCNC(=O)C1CCN(C(=O)c2ccc(-c3ccccc3)cc2)CC1	i	1.6
O=[N+]([O-])c1ccc(/C=C/c2nc3ccc([N+](=O)[O-])cc3[nH]2)cc1	i	0.44
CSc1cccc(NC(=O)c2nnn(CC(=O)Nc3cc(C)cc(C)c3)c2N)c1	i	0.19
COc1ccc(C(=O)C[n+]2cccc3cc(C)ccc32)cc1	i	-1
COc1cccc(O[C@@H]2O[C@@H]3COC(C)(C)O[C@H]3[C@H](O)[C@H]2NC(C)=O)c1	i	0.4
Cc1ccc(NC2CCCN(C(=O)c3ccccn3)C2)cc1C (stereo not given)	i	0.37
Cc1cccc(NC(=O)CCc2nnc3ccc(NCc4ccco4)nn23)n1	i	-0.03
COCCNC(=O)CN(C(=O)CCC(=O)Nc1nccs1)c1ccc2c(c1)OCO2	i	0.01
COC(=O)c1cc(OC)c(OC)cc1NC(=O)c1c(-c2ccccc2)noc1C	i	-0.03
CC1CCCC(C)N1CCCNC(=O)c1cc2c(s1)-c1ccccc1OC2 (stereo not given)	i	-0.2
Cc1ccc(N2C(=O)c3cccc([N+](=O)[O-])c3C2=O)cc1C	i	-0.01
Cc1ccc(/C=N/NC(=O)CSc2nc3ccccc3n2C)s1	i	2
O=C1c2ccccc2CN1CCNC(=S)NC1CCCCC1	i	0.29

Profiles as entered above. Screens in order: KCNQ2 block	KCNQ2 block baseline
`O=C1c2ccccc2CN1CCNC(=S)NC1CCCCC1` is listed as i	0.29
`Cc1ccc(N2C(=O)c3cccc([N+](=O)[O-])c3C2=O)cc1C` is listed as i	-0.01

The results go on.
SMILES	KCNQ2 block	KCNQ2 block baseline
OCCCn1c(-c2ccccc2)n[nH]c1=S	i	1.5
COC(=O)C1C(c2ccc(Br)cc2)Nc2nnc(C(F)(F)F)n2C1(C)O (stereo not given)	i	-0.79
Cc1cc(Nc2ccccc2)c2c([N+](=O)[O-])c(C)cc(C)c2n1	i	-2.4
Cc1c(C(c2cc(O)ccc2Cl)c2c(C)n(C)n(-c3ccccc3)c2=O)c(=O)n(-c2ccccc2)n1C	i	1.3
CCOC(=O)c1cnc2c(C(=O)OCC)cnn2c1N	i	-1.4
CCOc1ccc(N=CC2=C(O)CC(c3ccco3)CC2=O)cc1 (stereo not given)	i	2.8
CC1(C)Cc2ccccc2C(c2cc3ccccc3oc2=O)=N1	i	-1.9
O=C(COC(=O)CNC(=O)C1CCCCC1)Nc1ccc(Cl)cc1F	i	0.42
CCC(=O)Nc1cc(-c2nnc(OC)c3ccccc23)ccc1N1CCOCC1	i	1.6
CCn1c(=O)c2cc(C(=O)NCCC(C)C)sc2c2ccccc21	i	0.95
CCN1CCN(c2nc3ccccc3nc2NS(=O)(=O)c2ccc(NC(C)=O)cc2)CC1	i	-0.88
CCOc1ccc(C2C(C#N)=C(N)SC(N)=C2C#N)c(OCC)c1	i	-0.16
Cc1ccc(N(C)S(=O)(=O)c2ccc3c(c2)NC(=O)C(C)S3)cc1 (stereo not given)	i	-0.98
Cc1onc(NC(=O)CSCC(=O)O)c1Br	i	-0.93
CNC(=S)Nc1cc(OC)c(NC(=O)c2ccco2)cc1OC	i	-0.73
Cc1ccc(CNC(=O)C2CCC(CNS(=O)(=O)c3cccc4cccnc34)CC2)cc1 (stereo not given)	i	1.7
COc1ccccc1C(=O)NC1CCCCCCC1	i	0.35
CC(C)(C)OC(=O)N1CC=C2C(C#N)=C(N)C(C#N)(C#N)[C@H](c3cccnc3)[C@H]2C1	i	0.79
CN1/C(=C\C(=O)COC(=O)c2ccccc2O)C(C)(C)c2ccccc21	i	1.4
COc1cc(C)c(S(=O)(=O)Nc2ccccc2F)cc1C	i	-0.45
Cc1ccc(CC(=O)N2CC(C)OC(C)C2)cc1 (stereo not given)	i	-2.2
CC1CC(C)CN(C(=O)c2nn(C)c3c2CS(=O)(=O)c2ccccc2-3)C1 (stereo not given)	i	3
N#Cc1c(N)c(C(=O)c2ccccc2)n2c1CCCC2	i	0.55
CC(=O)C1C(c2ccc(C)cc2)c2c(n[nH]c2C)CC1(C)O (stereo not given)	i	4.5
COc1cccc(CNC(=O)CCNC(=O)c2ccccc2OC)c1	i	0.71
COc1cc2ccccc2cc1C(=O)N(CCN(C)C)c1nc2ccc(Br)cc2s1	i	-0.01
Cc1cc(C)nc(Nc2n[nH]c(-c3ccccc3C)n2)n1	i	-0.49
COc1cccc(NC(=O)Nc2nnc(Cc3ccc(OC)c(OC)c3)s2)c1	i	1.7
O=C(Oc1ccc(C(=S)N2CCOCC2)cc1)c1cc([N+](=O)[O-])cc([N+](=O)[O-])c1	i	0.03
O=C(CSc1cccc[n+]1[O-])NCCCc1ccccc1	i	-1.4
CCC(C)NC(=O)C1(C)CCC(=O)N1CCc1ccc(OC)c(OC)c1 (stereo not given)	i	-2.1
Cc1c(NS(=O)(=O)c2cccc(C(=O)O)c2)c(=O)n(-c2ccccc2)n1C	i	0.84
COc1ccc(S(=O)(=O)NCCc2cn3cccc(C)c3n2)cc1OC	i	1.4
C=CCC1CCC/C(=N\NS(=O)(=O)c2ccc(C)cc2)C1 (stereo not given)	i	-0.13
O=C1CN(C(=O)CSc2nncn2-c2ccccc2)c2ccccc2N1	i	-1.5
COC(=O)CSc1nnc(CNC(=O)c2cccs2)n1-c1cccc(C)c1	i	-0.88
CCOC(=O)CNC(=O)c1ccc(Br)s1	i	0.16

High-throughput results as filed in PubChem.
